Mtb H37Rv: Mycobacterium tuberculosis H37Rv growth inhibition, putative kinase inhibitor library, confirmatory dose response (AID 2842); M. tuberculosis H37Rv growth inhibition; higher % means a stronger effect; some inactives read as strong as hits; inhibition, % at 10 µg/mL; hits with a dose series show IC90 in µg/mL; 24,000 tested, 5.2% active;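 active = confirmed in a dose series; inconclusive = mostly over 85% at the one dose but not retested; inactive = below 85% or not confirmed; about a fifth of its hits are not listed in these tables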;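 note: bacteria incubated one week before Alamar blue readout; 0% = bacteria only wells and 100% = bacteria with high antibiotic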
* = called active by the depositor; ? = inconclusive. Only part of the results is shown; count on the stated rates, not on these rows.

SMILES	Mtb H37Rv
O=C(CSc1ccnc(=O)[nH]1)NCc1ccco1	-12%
COc1ccccc1Cn1cc(C(=O)c2ccccc2)c(=O)c2cc3c(cc21)OCCO3	36%
Cc1ccc(C)c(-c2nnc(NC(=O)c3ccccc3S(C)(=O)=O)o2)c1	19µg/mL*
Cn1c(=O)[nH]c(=O)c2c1nc(N1CCOCC1)n2Cc1ccc(F)cc1	-5%
CSc1cccc(NC(=O)CSc2nc3c(oc4ccccc43)c(=O)n2Cc2ccco2)c1	0%
O=C(O)c1cccc(Nc2ncnc3sc(-c4ccccc4)cc23)c1	9%
O=C(O)CC1C(=O)NCCN1Cc1c(F)cccc1Cl (configuration not stated)	1%
O=C(Nc1nc2c(cc3c4c(cccc42)CC3)s1)c1cc2ccccc2oc1=O	-13%
Cc1ccc(-n2c(SCC(=O)Nc3ccc4c(c3)OCO4)nc3c(c2=O)SCC3)cc1	8%
CC(=O)c1c(C)oc2ccc(N(C(=O)c3ccncc3)S(=O)(=O)c3cc(C)c(C)cc3C)cc12	9%
O=C(NCc1nnc(SCC(=O)N2CCC(Cc3ccccc3)CC2)o1)c1ccco1	25µg/mL*
COc1ccc(C2C3=C(CCCC3=O)Nc3[nH]c(=O)[nH]c(=O)c32)cc1 (configuration not stated)	-10%
CCOc1ccccc1NC(=O)CSc1nnc(CNC(=O)c2cccc([N+](=O)[O-])c2C)o1	-5%
Cc1cc2c(=O)n(C)c(SCC(N)=O)nc2s1	-15%
COc1cc(/C=N/N=C2\NC(=O)C(Cc3cc(C(F)(F)F)ccc3Cl)S2)ccc1O (configuration not stated)	10%
Cc1ccc(C(=O)/C=C/c2ccccc2C(=O)O)cc1	-7%
Cc1ccc2c(c1)C(=O)C(=O)N2CCc1ccccc1	39%
Cc1nnc(NC(=O)c2cc(Cl)ccc2Cl)s1	-2%
Cc1ccc(-c2csc(NC(=O)CSCC(=O)Nc3nccs3)n2)cc1C	80%
Cc1ccc(N2CC(NS(=O)(=O)N(C)C)CC2=O)cc1 (configuration not stated)	-9%

17 of the compounds above, as a markdown table.
| Structure | Mtb H37Rv |
| --- | --- |
| Cn1c(=O)[nH]c(=O)c2c1nc(N1CCOCC1)n2Cc1ccc(F)cc1 | -5% |
| CSc1cccc(NC(=O)CSc2nc3c(oc4ccccc43)c(=O)n2Cc2ccco2)c1 | 0% |
| O=C(O)c1cccc(Nc2ncnc3sc(-c4ccccc4)cc23)c1 | 9% |
| O=C(O)CC1C(=O)NCCN1Cc1c(F)cccc1Cl (configuration not stated) | 1% |
| O=C(Nc1nc2c(cc3c4c(cccc42)CC3)s1)c1cc2ccccc2oc1=O | -13% |
| Cc1ccc(-n2c(SCC(=O)Nc3ccc4c(c3)OCO4)nc3c(c2=O)SCC3)cc1 | 8% |
| CC(=O)c1c(C)oc2ccc(N(C(=O)c3ccncc3)S(=O)(=O)c3cc(C)c(C)cc3C)cc12 | 9% |
| O=C(NCc1nnc(SCC(=O)N2CCC(Cc3ccccc3)CC2)o1)c1ccco1 | 25µg/mL* |
| COc1ccc(C2C3=C(CCCC3=O)Nc3[nH]c(=O)[nH]c(=O)c32)cc1 (configuration not stated) | -10% |
| CCOc1ccccc1NC(=O)CSc1nnc(CNC(=O)c2cccc([N+](=O)[O-])c2C)o1 | -5% |
| Cc1cc2c(=O)n(C)c(SCC(N)=O)nc2s1 | -15% |
| COc1cc(/C=N/N=C2\NC(=O)C(Cc3cc(C(F)(F)F)ccc3Cl)S2)ccc1O (configuration not stated) | 10% |
| Cc1ccc(C(=O)/C=C/c2ccccc2C(=O)O)cc1 | -7% |
| Cc1ccc2c(c1)C(=O)C(=O)N2CCc1ccccc1 | 39% |
| Cc1nnc(NC(=O)c2cc(Cl)ccc2Cl)s1 | -2% |
| Cc1ccc(-c2csc(NC(=O)CSCC(=O)Nc3nccs3)n2)cc1C | 80% |
| Cc1ccc(N2CC(NS(=O)(=O)N(C)C)CC2=O)cc1 (configuration not stated) | -9% |

New compounds follow.
SMILES	Mtb H37Rv
CCOC(=O)c1nn(-c2ccc(C(F)(F)F)cc2)c(=O)c2c(NC(=O)c3ccc(C)c([N+](=O)[O-])c3)scc12	-2%
O=C(Cn1cnc2sc3c(c2c1=O)CCCC3)NCc1ccco1	3%
Cn1c(=O)c(O)c2c3c(cccc31)C(=O)c1ccccc1-2	0%
O=C(Nc1c2c(nn1-c1ccc(Cl)cc1)CS(=O)(=O)C2)c1ccc(Cl)cc1Cl	-3%
COC(=O)c1ccc(CSc2nc3sc(C(=O)O)c(C)c3c(=O)[nH]2)cc1	-25%
COc1ccc(-c2nnc3ccc(SCC(=O)Nc4nc(C)cs4)nn23)cc1	11%
COc1ccc(OC)c(C(=O)CSc2nccn(-c3ccc(Cl)cc3)c2=O)c1	-11%
Cc1ccc(C)c2[nH]c(=O)c(CCNC(=O)c3ccc([N+](=O)[O-])cc3)cc12	-1%
CCOC(=O)c1nn(-c2ccc(F)cc2)c(=O)c2c(NC(=O)c3ccc(OC)cc3OC)scc12	-4%
CCC(CC)C(=O)Nc1c(C(=O)Nc2ccc(OC)c(OC)c2)oc2ccccc12	4%
O=C(CCCCCn1c(=O)[nH]c2ccsc2c1=O)NCC1CCCO1 (configuration not stated)	-7%
N#Cc1cc(-c2ccccc2)c[nH]c1=O	-7%
CCCn1cc(SCC(=O)Nc2cc(C)on2)c2ccccc21	5%
COc1cccc(Cn2cc(S(=O)(=O)c3ccc(Cl)cc3)c(=O)c3cc(OC)c(OC)cc32)c1	-4%
CCOc1ccc(C(=O)c2cn(Cc3cccc(OC)c3)c3cc4c(cc3c2=O)OCO4)cc1	2%
O=C(NCCc1ccccc1)C(=O)Nc1cc2c3c(c1)CCC(=O)N3CCC2	-3%
O=c1cc(NCc2ccc3c(c2)OCO3)[nH]c(=O)n1-c1ccc(Cl)cc1	-2%
Cc1ccc2cc(CCNC(=O)c3ccccc3F)c(=O)[nH]c2c1	7%
CC1C(=O)N2CCCc3cc(S(=O)(=O)Nc4cc(F)ccc4F)cc1c32 (configuration not stated)	7%
O=C(CCc1ccccc1)Nc1nnc(-c2ccc(Cl)s2)o1	2.3µg/mL*
Cc1cccc(CC(=O)Nc2c(C(=O)Nc3ccc4c(c3)OCO4)oc3ccccc23)c1	0%
Cc1cc(NCCCN2CCOCC2)n2ncc(-c3ccccc3)c2n1	-5%
CCOC(=O)c1nn(-c2ccc(F)cc2)c(=O)c2c(NC(=O)CCl)scc12	10%
COC(=O)c1ccc(Oc2coc3cc(O)ccc3c2=O)cc1	-9%
Cc1csc2ncc(C(=O)NCc3ccco3)c(=O)n12	-6%
CCSc1ccccc1C(=O)Nc1sc(C)c(C)c1C#N	5%
COc1ccccc1NC(=O)c1oc2ccccc2c1NC(=O)c1ccc(Br)o1	-6%
CCC(CC)C(=O)Nc1nnc(-c2ccc(F)cc2)s1	21%
Cc1ccc(NC(=O)CSc2nc(N)c(NC(=O)c3ccc(F)c(F)c3)c(=O)[nH]2)cc1Cl	-1%
CCc1cccc2sc(N(CCCn3ccnc3)C(=O)c3ccc(OC)c(OC)c3)nc12	14µg/mL*
O=C(Nc1nc2c(s1)CCc1ccccc1-2)c1ccc(Cl)cc1Cl	8%
Fc1cccc2sc(Nc3nnc(-c4ccccc4)o3)nc12	9.1µg/mL*
O=C(Cn1cnc2c(cnn2-c2ccc(Cl)cc2)c1=O)NCc1ccco1	7%
Cc1cc(C)c(NC(=O)CSc2nnc3[nH]c(=O)c(C)c(C)n23)c(C)c1	-13%
O=c1ccn2c(SCc3ccccc3F)nnc2[nH]1	-13%
COc1cccc(C(=O)Nc2c3c(nn2-c2ccc(C)cc2)CS(=O)C3)c1 (configuration not stated)	10%
NC(=O)c1oc2ccccc2c1NC(=O)/C=C/c1cccc([N+](=O)[O-])c1	-18%
C=CCn1c(N/N=C/c2ccc(Cl)cc2)nc2c1c(=O)[nH]c(=O)n2C	-9%
O=C1NCCc2c(OCC(=O)N3CCCC3)cccc21	-13%
Cc1ccc(C(=O)c2cn(CC(=O)Nc3ccc4c(c3)OCCO4)c3ccc(F)cc3c2=O)cc1	7%
Cn1c(=O)[nH]c(=O)c2c1nc(N1CCN(Cc3ccccc3)CC1)n2CCSc1nnnn1-c1ccccc1	43%
O=C(NCC1COc2ccccc2O1)C(=O)c1c[nH]c2ccccc12 (configuration not stated)	14%
CC(C)Oc1ccc(-c2cc(C(=O)N/N=C\c3cccnc3)[nH]n2)cc1	-6%
COc1ccc2nc(-c3ccc(F)c(NC(=O)c4ccccc4)c3)cn2n1	-4%
CCOC(=O)c1c(NC(=O)c2cccc(OC)c2)sc2c1CC(C)(C)NC2(C)C	20%
N#Cc1ccc(N=c2oc3ccccc3cc2C(=O)Nc2ccccc2)cc1	2%
O=C(Cc1cccs1)Nc1nnc(-c2ccccc2Cl)s1	-3%
CCOC(=O)c1nn(-c2ccc(OC)cc2)c(=O)c2c(NC(=O)c3ccc(Cl)cc3Cl)scc12	8%
Brc1cccc2sc(N3CCN(c4nc5c(Br)cccc5s4)CC3)nc12	15%
COC(=O)C(=O)Nc1nc2ccc(C(=O)c3ccccc3C(=O)OC(C)C)cc2[nH]1	15%
Going on with the list:
SMILES	Mtb H37Rv
CCOCC(=O)Nc1scc2c(C(=O)OCC)nn(-c3ccccc3)c(=O)c12	-1%
O=C(CNCc1ccco1)Nc1ncc(Cc2cc(C(F)(F)F)ccc2Cl)s1	8%
COc1ccc(-c2nnc3ccc(SCc4ccccc4F)nn23)cc1	-4%
c1c2c(cc3sc(N4CCCCC4)nc13)OCO2	39%
O=C(CSc1ccc(-c2ccc(-n3ccnc3)cc2)nn1)Nc1ccccc1C(F)(F)F	-10%
Cc1ncc([N+](=O)[O-])n1CCOC(=O)c1ccc(Br)cc1	9%
O=C(Nc1sc2c(c1-c1nc3ccccc3s1)CCCC2)c1cccc(Cl)c1	5%
CC(=O)c1cccc(NS(=O)(=O)N2CCCCC2)c1	-3%
CCOc1ccc(/C(O)=C2\C(=O)C(=O)N(CCCn3ccnc3)C2c2cccnc2)cc1Cl (configuration not stated)	2%
Nc1nc(SCC(=O)NCc2ccccc2)nc2sc3c(c12)CCC3	-4%
Cc1cc(N2CCN(c3ccccc3)CC2)n2ncc(-c3ccccc3)c2n1	-10%
COc1ccc2cc(CCNC(=O)c3cccc(Cl)c3)c(=O)[nH]c2c1	-2%
O=C(Nc1nnc(-c2ccc(Cl)cc2Cl)s1)c1ccc(S(=O)(=O)N2CCCCC2)cc1	-2%
Cc1c(C)n2c(SCc3ccccc3F)nnc2[nH]c1=O	-17%
Cc1cc(SCc2c(F)cccc2Cl)nc(=O)[nH]1	-24%
Cn1c2c(c(=O)[nH]c1=O)C(c1ccccc1)C1=C(COC1=O)N2 (configuration not stated)	-2%
COCCCNS(=O)(=O)c1ccc2c3c(cccc13)C(=O)S2	0%
Cc1ccc2cc(CCNC(=S)Nc3ccccc3Cl)c(=O)[nH]c2c1	17%
O=c1[nH]cc(S(=O)(=O)N2CCN(C(c3ccccc3)c3ccccc3)CC2)c(=O)[nH]1	-6%
O=C(CS(=O)(=O)c1ccccc1)Nc1cccc2c1C(=O)c1ccccc1C2=O	21µg/mL*
COc1ccc(C(=O)Nc2c(C(=O)Nc3ccc([N+](=O)[O-])cc3)oc3ccccc23)cc1	6%
CNC(=O)NC1CC(=O)N(c2ccc(OC)c(OC)c2)C1 (configuration not stated)	-5%
COc1ccc(OC)c(NC(=O)/C(C#N)=C/c2ccc(C(C)C)cc2)c1	-15%
Cc1ccc(-n2nc3c(c2NC(=O)COc2ccc(Cl)cc2)CS(=O)C3)cc1 (configuration not stated)	13%
CCCCNc1nc2c(c(=O)n(C)c(=O)n2C)n1Cc1ccc(Cl)cc1	-5%
Cc1ccc(NC(=O)CSc2nc3c(c(=O)n2Cc2ccccc2)SC(C)C3)cc1Cl (configuration not stated)	-6%
Cc1cc(C)n2cc(CSc3nc4ccccc4[nH]3)nc2n1	-4%
Cc1ccc(C)c2[nH]c(=O)c(CCNC(=S)Nc3ccc(C(F)(F)F)cc3)cc12	67%
O=c1oc2ccc3ccccc3c2cc1-c1nc2ccccc2[nH]1	-5%
COC(=O)c1ccccc1NC(=O)c1c(-c2ccccc2Cl)noc1C	14%
CCc1ccc(C2C(C(=O)OC3CCCC3)=C(C)NC3=C2C(=O)CC(C)(C)C3)cc1 (configuration not stated)	34%
O=C(Nc1c2c(nn1-c1cccc(Cl)c1)CS(=O)C2)c1c(F)cccc1Cl (configuration not stated)	7%
O=C(NNc1nc2cc3c(cc2s1)OCO3)c1cccc(F)c1	?
O=C(CSc1nnc2ccc(-c3cccnc3)nn12)c1ccc([N+](=O)[O-])cc1	-11%
CCC(=O)Nc1sc2c(c1C(N)=O)CCN(C(C)=O)C2	11%
CCCOc1ccccc1N1C(=O)CC(N(O)c2ccccc2)C1=O (configuration not stated)	-11%
CC1CCc2nc(NC(=O)c3ccc(N4C(=O)CCC4=O)cc3)sc2C1 (configuration not stated)	39%
Cc1ccnc(SCCCn2c(N3CCN(c4cccc(Cl)c4)CC3)nc3c2c(=O)[nH]c(=O)n3C)n1	-8%
Nc1nc(SCC(=O)N2CCc3ccccc32)[nH]c(=O)c1NC(=O)c1ccccc1F	1%
COc1ccc(C(=O)COC(=O)c2ccc(C)o2)cc1OC	8%
CCOC(=O)c1nn(-c2ccc(C(F)(F)F)cc2)c(=O)c2c(NC(=O)c3ccccc3[N+](=O)[O-])scc12	7%
Oc1cccc(/C=N/Nc2ncnc3nc[nH]c23)c1	8%
CCOc1ccc(C(=O)Nc2nnc(-c3ccccc3)s2)cc1OCC	9%
CCOc1ccccc1C(=O)Nc1sc2c(c1C#N)CCC(C)C2 (configuration not stated)	-7%
O=C(Nc1nnc(-c2ccc(Cl)cc2)s1)c1ccc(Cl)cc1Cl	9%
CCS(=O)(=O)c1ccc(C(=O)Nc2nc3c(F)cc(F)cc3s2)cc1	-1%
O=C(CSc1nc2c(c(=O)n1-c1ccccc1)SCC2)NCc1ccc(F)cc1	-2%
O=C(NCCO)c1ccc(CSc2nc3ccccc3c(=O)[nH]2)cc1	-16%
O=C(Nc1nc(-c2ccc(-c3ccccc3)cc2)cs1)c1ccccc1Oc1ccccc1	1%
CCOC(=O)CNC(=O)CSc1ncnc2ccccc12	-5%
Cn1c(=O)c2c(nc(NCc3cccnc3)n2CC(=O)c2ccccc2)n(C)c1=O	-9%
COc1cccc(C(c2sc3ncnn3c2O)N2CCOCC2)c1 (configuration not stated)	-6%
